Bioassay records: PubChem BioAssay, several laboratories
CBX7 inh = CBX7 chromodomain binding inhibitors, primary screen, biochemical, AlphaScreen | Chromobox protein homolog 7 (Homo sapiens), O95931 | AlphaScreen His6-CBX7 / biotin-H3K27me3 peptide binding; hits give low values | normalised signal (fraction of DMSO) (concentration not given with the values) | 66,000 compounds, 1.1% hits; in the data active = normalised signal below about 0.5;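 note: 100 nL library stock added to about 20 µL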
Target sequence (O95931 whole entry, looked up): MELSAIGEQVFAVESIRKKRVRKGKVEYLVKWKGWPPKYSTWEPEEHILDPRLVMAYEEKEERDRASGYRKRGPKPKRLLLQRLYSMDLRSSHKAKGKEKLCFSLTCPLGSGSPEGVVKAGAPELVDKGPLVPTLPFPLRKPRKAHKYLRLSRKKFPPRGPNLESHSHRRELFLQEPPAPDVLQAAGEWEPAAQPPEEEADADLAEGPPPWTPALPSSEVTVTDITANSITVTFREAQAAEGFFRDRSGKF
CBX7 inh z-score = also measured in CBX7 inh; calls as there; z-score; measured here: z-score of CBX7 signal; some inactives read as strong as hits; reference of the scale not given here;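 same signal on another scale; lower means less binding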
The depositor's hits bear a star; & = joins results of further samples. These rows are one share of the data, so the mix of outcomes need not match the whole.

Compound | CBX7 inh | CBX7 inh z-score
CCOc1ccc2ccccc2c1C(=O)NCCc1cc2ccc(C)c(C)c2[nH]c1=O | 1.1 | 1.8
CCc1cc(-c2onc(C(F)(F)F)c2-c2ccccc2)c(O)cc1OC | 0.93 | -0.29
Cc1ccc(OCc2nnc(NC(=O)c3cccs3)s2)cc1 | 1.1 | 0.56
O=C1CC(c2ccccc2)CC2=C1C(c1cccnc1)Nc1ccccc1N2 (configuration not stated) | 0.78 | -2.6
Cc1nn(Cc2ccccc2)c(C)c1NC(=O)c1cc(-c2ccc(O)cc2)on1 | 0.97 | -1
CCCN1Cc2cccc(C(=O)N3CCN(c4cc(Cl)ccc4C)CC3)c2C1=O | 1.1 | 0.85
Cc1cc(Oc2ccc(=O)n(C)n2)nc(SCC(N)=O)n1 | 0.85 | -1.9
COc1cccc(Nc2nc(-c3ccc(Cl)cc3)cs2)c1 | 0.9&0.91 | -2.9&-1.6
CCOC(=O)c1ccc(NC(=O)CN2C(=O)CC(c3ccc(OC)cc3)Sc3ccccc32)cc1 (configuration not stated) | 1 | 0.22
O=C(Nc1cccc(Cl)c1)C1CCCN(S(=O)(=O)c2cccs2)C1 (configuration not stated) | 1 | 0.24
COc1ccc(Cl)cc1Nc1nc(Cc2ccccc2)nc2sc(C)c(C)c12 | 1.1 | 1.8
CN(C(=O)Cc1c(C(=O)O)[nH]c2ccc(Cl)cc12)c1ccc(Br)cc1 | 1.2 | 2
Brc1ccc(-c2nc(NCCCN3CCOCC3)c3ccccc3n2)cc1 | 1.4 | 4.2
COC(=O)c1ccccc1NC(=O)c1cc(-c2ccccc2OC)on1 | 1.1 | 0.17
Cc1cccc(-c2cc(C(=O)NCCCN(C)C)c3ccccc3n2)c1 | 0.97 | -0.72
Cc1nnc(Nc2ccc(Cl)c(Cl)c2)[nH]c1=O | 1.4 | 0.74
COc1cccc(-c2nn(C)c3sc(C(=O)NCc4ccc(C)cc4)cc23)c1 | 1.1 | 2.7
CCOc1cccc(C(=O)N(Cc2ccc(N(C)C)cc2)C2CCS(=O)(=O)C2)c1 (configuration not stated) | 0.98 | -0.19
CC(C)OCCCNC(=O)c1ccc2c(c1)N(Cc1cccc(Cl)c1)C(=O)c1ccccc1S2 | 0.63 | -2.9
Cc1nc2nc(C)c(CCC(=O)NC(C)c3ccc4c(c3)OCCO4)c(C)n2n1 (configuration not stated) | 0.86 | -0.61
Cn1cc(CC(=O)Nc2ccc(F)cc2F)c2ccccc21 | 0.93 | -0.96
CCN(CCNC(=O)c1ccc2c(c1)N(CC)C(=O)c1ccccc1S2(=O)=O)c1ccccc1 | 0.94 | -1.3
O=C(NCCC1=CCCCC1)C1CCCN(S(=O)(=O)c2cccnc2)C1 (configuration not stated) | 1 | 0.98
CCOC(=O)N1CCC(Nc2c(NCCN3CCCCC3CC)c(=O)c2=O)CC1 (configuration not stated) | 1 | 0.69
COc1ccc2nc(N3CCCC(C(=O)NC4CCCCC4)C3)sc2c1 (configuration not stated) | 0.99 | -0.069
COc1ccc(-c2nc3ccccc3n2Cc2ccccc2C)cc1OC | 1.1 | 0.53
Cc1nnc(Nc2ccc(O)cc2)c2ccccc12 | 1 | 0.88
Cc1cc(C)n(-c2ccccc2F)c(=O)c1C(N)=O | 1.1 | 1.3
CC(=O)c1c(C)n(-c2ccc(C)cc2)c2ccc(O)cc12 | 1.1 | 0.39
CCOC(=O)c1c(C)n(CC)c2ccc(O)cc12 | 1 | 0.64
Cc1ccc(-c2nn(CC(=O)NC(C)c3ccccc3)c(=O)c3ccccc23)cc1 (configuration not stated) | 0.92 | -0.91
Cc1cccc(NC(=O)CSc2nccn2-c2ccc(Cl)cc2)c1 | 0.45* | -1.9*
O=S(=O)(Nc1nc2ccccc2nc1Nc1ccccc1F)c1ccccc1 | 0.84 | -4.5
CCn1c(C(=O)N2CCC(C(=O)NCCc3ccc(OC)cc3OC)CC2)cc2sccc21 | 0.95 | -0.2
Cn1c(SCC(=O)Nc2ccc(F)cc2)nnc1-c1cccnc1 | 1 | 0.015
COc1ccc(N2C(=O)C(C)C(Cc3ccc(C)cc3)C2=O)cc1 (configuration not stated) | 0.92 | -0.61
Cc1ccc(CNC(=O)CS(=O)(=O)Cc2nc(-c3ccc(C)cc3)oc2C)cc1 | 0.96 | -0.085
Cc1ccccc1-c1nc(CN2CCC(C(=O)NCCC(C)C)CC2)c(C)o1 | 0.78 | -3.3
Cc1cc(C)c(-c2csc(NC(=O)c3ccc(S(=O)(=O)N(C)C)cc3)n2)c(C)c1 | 0.95 | -0.81
CCOC(=O)C1CCCN(c2c(NCCN3CCCCCC3)c(=O)c2=O)C1 (configuration not stated) | 1 | 0.94
Cc1nnc(NC(=O)CSc2ncnc3ccccc23)s1 | 1 | 0.13
Cc1nc2nc[nH]n2c(=O)c1NS(=O)(=O)c1ccc(F)cc1 | 1.1 | 2.5
COc1ccc(Br)cc1C(=O)Nc1cccc(-c2nc3ncccc3o2)c1 | 0.98 | -0.25
COc1cccc(C2CC(c3ccc(C)cc3)Nc3ncnn32)c1 (configuration not stated) | 0.99 | -0.48
O=c1cc(C(F)(F)F)oc2ccc(Cl)cc12 | 0.97 | -0.29
Clc1cccc(N2CCN(c3c4c(nc5ccc(Cl)cc35)CCCC4)CC2)c1 | 0.99 | -0.0078
COc1ccc(OCCCC(=O)Nc2nc3ccc(S(C)(=O)=O)cc3s2)cc1 | 0.78 | -2.3
O=C(NCCc1ccccc1)c1ccc2c(c1)N(Cc1ccc(F)cc1Cl)C(=O)CS2 | 1.1 | 3.4
CC(C)c1ccc2oc(-c3cc(NC(=O)c4cccnc4)ccc3Cl)nc2c1 | 0.97 | -0.75
Cc1cc(N2CCC(C(=O)NCCCOC(C)C)CC2)n2nc(C)c(-c3ccc(Cl)cc3)c2n1 | 1.1 | 0.17
CCc1ccccc1N(C)S(=O)(=O)c1ccc2[nH]cc(C(=O)NC3CCCC3)c(=O)c2c1 | 1.1 | 0.66
CCOC(=O)c1ccccc1NC(=O)c1cn(CC)c2nc(C)ccc2c1=O | 1 | 0.32
CCOC(=O)c1cnc2ccc(OCC)cc2c1Nc1ccc(Cl)cc1C | 1 | 0.58
CCCOc1ccc(N2C(=O)CC(N3CCN(C)CC3)C2=O)cc1 (configuration not stated) | 1.1 | 1.5
CCOc1ccccc1NC(=O)c1c(NC(=O)c2ccccc2F)sc2c1CCC2 | 1.1 | 4.9
COc1cccc(C(=O)Nc2ccc(-c3csc(-c4ccccc4)n3)cc2)c1 | 1 | 0.32
O=C(CN1C(=O)COc2ccc(S(=O)(=O)N3CCCCCC3)cc21)N1CCCCC1 | 1 | 0.061
COc1ccc(C2(CNC(=O)Cc3ccccc3)CCCCC2)cc1OC | 0.95 | -0.79
Cn1c(C(=O)N2CCCC(C(=O)NCCc3ccc(S(N)(=O)=O)cc3)C2)cc2sccc21 (configuration not stated) | 0.87 | -3.9
O=C(COc1ccc(Cl)cc1)Nc1nc(-c2ccc(Oc3ccccc3)cc2)cs1 | 0.95 | -1

Structures shown so far that have a thiophene ring, fused or not:
Compound | CBX7 inh | CBX7 inh z-score
Cc1ccc(OCc2nnc(NC(=O)c3cccs3)s2)cc1 | 1.1 | 0.56
O=C(Nc1cccc(Cl)c1)C1CCCN(S(=O)(=O)c2cccs2)C1 (configuration not stated) | 1 | 0.24
COc1ccc(Cl)cc1Nc1nc(Cc2ccccc2)nc2sc(C)c(C)c12 | 1.1 | 1.8
COc1cccc(-c2nn(C)c3sc(C(=O)NCc4ccc(C)cc4)cc23)c1 | 1.1 | 2.7
CCn1c(C(=O)N2CCC(C(=O)NCCc3ccc(OC)cc3OC)CC2)cc2sccc21 | 0.95 | -0.2
CCOc1ccccc1NC(=O)c1c(NC(=O)c2ccccc2F)sc2c1CCC2 | 1.1 | 4.9
Cn1c(C(=O)N2CCCC(C(=O)NCCc3ccc(S(N)(=O)=O)cc3)C2)cc2sccc21 (configuration not stated) | 0.87 | -3.9

Later entries:
Compound | CBX7 inh | CBX7 inh z-score
CC(C)(C)OC(=O)N1CCC(c2c(C(=O)Nc3ccccc3)cnn2-c2ccc(F)cc2)CC1 | 1 | 0.24
O=C1CN(C(=O)c2cccc(C(F)(F)F)c2)C(c2ccc(F)cc2)c2cc(Br)ccc2N1 (configuration not stated) | 0.92 | -1.1
Cc1cc(NC(=O)CCc2c(C)nc3ncnn3c2C)ccc1Br | 1 | 0.62
Cc1c(Cl)cccc1NC(=O)c1cc(-c2ccc(F)cc2)on1 | 1.1 | 0.1
O=C(Nc1ccc(-c2csc(-c3ccccc3)n2)cc1)c1ccccc1 | 0.99 | -0.43
COc1ccc(Oc2ccc3c(c2)c2c4n3CCNC4CCC2)cc1 (configuration not stated) | 0.55 | -2.9
COc1ccc(C(=O)Oc2ccc(NC(=O)Cc3nn(C)c(=O)c4ccccc34)cc2)cc1 | 1.1 | 1.1
Cc1cccc(CCNC(=O)c2nnc(Cc3ccc(F)cc3)o2)c1 | 0.94 | -0.71
c1cnc2nc(-c3ccsc3)c(NC3CCCCC3)n2c1 | 1.1 | 1.8
CCOC(=O)c1c(NC(=O)COc2ccccc2C(C)C)sc2c1CCCC2 | 1.1 | 2.3
O=C(Nc1c(-c2ccc(F)cc2)nc2ccccn12)c1ccc2ccccc2c1 | 0.95 | -1.5
COc1ccc(-n2c(/C=C/c3ccccc3F)nc3cc(OC)c(OC)cc3c2=O)cc1Cl | 1 | 0.033
COc1ccc(C(=O)Nc2ccc3nc4n(c(=O)c3c2)CCCCC4)cc1 | 0.99 | -0.12
CCOc1ccc(-c2cc(C(=O)NCCN(CC)c3ccccc3)c3ccccc3n2)cc1 | 0.94 | -3.1
Cc1ccc(NC(=O)c2ccccc2-c2nc3ccccc3[nH]2)cc1C | 1 | -0.0076
O=C(NCc1cccnc1)c1ccc2c(c1)NC(=O)C1CCCN21 (configuration not stated) | 0.94 | -1.2
CCOc1ccc(N2C(=O)c3ccccc3C2Nc2ccc(OC)c(Cl)c2)cc1 (configuration not stated) | 0.91 | -3.1
CCC1=Nc2cc(C(=O)NCCCN(CC)CC)ccc2Sc2ccccc21 | 0.85 | -1.7
Cc1ccccc1CN1CCN(CC(=O)NC2CCCCC2)C1=O | 1.3 | 3.4
CC1CCN(S(=O)(=O)c2ccc3c(c2)N(CC(=O)NC2CCCC2)C(=O)CS3)CC1 | 0.95 | -0.06
CCN(CC)S(=O)(=O)c1ccc2c(c1)N(CC(=O)NCc1ccccc1Cl)C(=O)CO2 | 0.99 | -0.4
Cc1cc2c(cc1C)C(c1cc3c(cc1Br)OCO3)CC(=O)N2 (configuration not stated) | 1 | 0.41
Cc1cccc(N2CCN(C(=O)CCn3c(=O)[nH]c4ccccc4c3=O)CC2C)c1 (configuration not stated) | 1 | -0.005
FC(F)(F)c1cccc(Nc2nc(-c3ccncc3)nc3ccccc23)c1 | 1 | 0.044
Cc1ccc2nc(SCC(=O)Nc3ncccn3)[nH]c2c1 | 0.98 | -0.77
CCCCCn1c(CCCO)nc2ccccc21 | 1.1 | 2.4
COc1ccc(-n2c(=O)cc(N3CCN(c4ccccc4)CC3)[nH]c2=O)cc1 | 1 | 0.22
Cc1cc(C)n(-c2nc3ccccc3nc2NCCc2ccc(Cl)cc2)n1 | 2 | 20
CCc1ccccc1NC(=O)C1CCCN(c2nnc(-n3cccc3)s2)C1 (configuration not stated) | 1 | -0.1
Cc1c(C(=O)NCc2cccnc2)oc2ccc(S(=O)(=O)N3CCC(C)CC3)cc12 | 1 | 0.43

Overlap with the part before: 2 entries; new compounds follow.
Compound | CBX7 inh | CBX7 inh z-score
CCc1ccccc1NC(=O)C1CCCN(c2nnc(-n3cccc3)s2)C1 (configuration not stated) | 1 | -0.1
Cc1c(C(=O)NCc2cccnc2)oc2ccc(S(=O)(=O)N3CCC(C)CC3)cc12 | 1 | 0.43
Cc1ccc(NC(=O)C2(NC(=O)c3ccc(-n4cnnn4)cc3)CCCCC2)cc1 | 1 | 0.17
COc1ccccc1CNC(=O)C1CCCN(S(=O)(=O)c2ccc(C)cc2)C1 (configuration not stated) | 1 | 0.41
Cc1cc(NC(=O)c2cc(-c3ccc(Cl)c(Cl)c3)on2)no1 | 1 | 0.2
O=C1CCc2cc(S(=O)(=O)NCc3ccc(F)cc3)ccc2N1 | 1.1 | 2.3
CC(C)CCNC(=O)C1CCN(c2nc3ccccc3n2Cc2ccc(F)cc2)CC1 | 0.98 | -0.29
COc1cccc(-c2nc(-c3ccc(Cl)cc3)no2)c1 | 1.1 | 1
Clc1ccc(-n2ncnc2-c2cccc(Br)c2)cc1 | 0.98 | -0.24
CCC(C)N(CCNC(=O)CN1C(=O)CCSc2ccccc21)C1CCCCC1 (configuration not stated) | 0.99 | -0.26
Cc1csc2ncc(C(=O)Nc3ccc(F)cc3F)c(=O)n12 | 1 | -0.054
O=C(CN1CCN(Cc2ccccc2F)C1=O)NCC1CCCO1 (configuration not stated) | 0.83 | -2.5
Cc1ccc(C(=O)Nc2nc(CC(C)O)ns2)cc1 (configuration not stated) | 1.1 | 0.55
COc1ccc(C(=O)Nc2ccc(Cl)c(-c3nc4cc(C)cc(C)c4o3)c2)cc1OC | 1 | 0.47
CCC(=O)N1CCc2cc(S(=O)(=O)Nc3ccc(N(CC)CC)cc3C)ccc21 | 0.86 | -2.8
COc1ccc(-n2nnc3c(=O)n(CC(=O)Nc4ccc(Cl)cc4)cnc32)cc1 | 0.92 | -1.5
COc1ccc(CC2CC(=O)N(c3ccc(OC)cc3)C2=O)cc1 (configuration not stated) | 1.2 | 1.4
CCOC(=O)C1CCCN(c2c(NCC3CCCN3CC)c(=O)c2=O)C1 (configuration not stated) | 0.98 | -0.43
Cc1noc(/C=C/c2cccs2)c1S(=O)(=O)N1CCC(C(=O)NCCCc2ccccc2)CC1 | 1 | -0.098
CCOC(=O)N1CCC(NC(=O)C2CCN(c3nc4ccccc4[nH]3)CC2)CC1 | 0.94 | -0.73
O=C(Nc1ccc(-c2nc3ncccc3o2)cc1)c1ccc(F)cc1 | 1 | 0.017
COc1cccc(CNC(=O)c2ccc(CNc3c(N4CCC(C)CC4)c(=O)c3=O)cc2)c1 | 1.1 | 3.1
